Screening data: PubChem BioAssay, National Center for Advancing Translational Sciences (NCATS)
Rango dissoc inh – qHTS Assay for Inhibitors of RanGTP induced Rango (Ran-regulated importin-beta cargo) - Importin beta complex dissociation. Snurportin-1 (Homo sapiens) + GTP-binding nuclear protein Ran (Homo sapiens) + Importin …. Biochemical FRET Rango-importin beta, RanGTP-induced dissociation. Potency, µM (doses to about 46.1 µM), for the others: at the highest dose activity change, negative = inhibition. 340,000 tested, 0.071% active; active means falling FRET ratio curve, often poorly fitted, with flat reads before Ran was added; inconclusive means other falling curves, or compound fluorescence or quenching; inactive means flat or rising ratio curve;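 further: potency means the concentration at half of the fitted maximal effect; % of control where 0% means no effect; nearly all actives have a fitted effect of over 45% in size; -100% = wells without RanGTP and RCC1; the record marks most hits as doubtful in a second field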
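Two FRET readings bracket the reaction: one 5 min after compound meets Rango–importin beta, another 45 min after RanGTP-RCC1 (0.6 uM Ran, 0.2 uM RCC1, 2 mM GTP) is added. Only the second defines inhibition.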
miR-21 FLuc – qHTS Assay for Modulators of miRNAs and/orActivators of miR-21; 340,000 tested, under 10 active; Potency, µM (series often up to 38.3 µM), without a hit: at the highest dose reporter change, positive = more light; HeLa miR-21 FLuc reporter, luciferase, 48 h; active = well fitted rising curve with a large enough effect; inconclusive = small, poorly fitted or top-dose-only effect; inactive = no such curve, though single readings can be large or run the other way;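 further: % of control where 0% means no effect; miR-21 action dims this reporter so a rising signal means less miR-21 action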
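HeLa miR-21-FLuc reporter line, endogenous miR-21; 2000 cells/well in DMEM/10% FBS; compound titration up to ~40uM final, 48 h, 37 degree Celsius; luciferase detection reagent, 15 min lysis, CCD luminescence.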
GLA inh pH 4.5 – qHTS Assay for Inhibitors of Human alpha-Galactosidase at pH 4.5 | Alpha-galactosidase A (Homo sapiens), P06280 | purified enzyme, 4-MU-alpha-Gal fluorescence, pH 4.5 | activity change, negative = inhibition, % at 105 µM | 230,000 tested, under 10 active | AID 1467, 2008; inconclusive = small, poorly fitted or top-dose-only inhibition, or a rising curve; inactive = flat fitted curve, though single readings scatter; no compound was filed as active;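 further: 0% = full activity with enzyme and -100% = basal without enzyme; dose as in the result columns while the protocol names 77 µM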
Rango-impB inh – qHTS Assay for Inhibitors of Rango (Ran-regulated importin-beta cargo) - Importin beta complex formation | Potency, µM (highest dose often 92.2 µM), for inactives: at the highest dose inhibition of complex formation | Rango CFP/YFP FRET sensor + importin beta, 45 min | Importin subunit beta-1 (Homo sapiens), Q14974 | AID 540263, 2011 | 340,000 tested, 0.031% active; active = rising FRET ratio curve, often small or poorly fitted; inconclusive = mostly compound fluorescence or quenching in the first reads; inactive = flat curves in all reads;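 further: potency means the concentration at half of the fitted maximal effect; 0% = DMSO wells and 100% = buffer wells lacking importin beta; nearly all actives have a fitted effect of over 15% in size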
Target sequence (Q14974 whole entry, looked up): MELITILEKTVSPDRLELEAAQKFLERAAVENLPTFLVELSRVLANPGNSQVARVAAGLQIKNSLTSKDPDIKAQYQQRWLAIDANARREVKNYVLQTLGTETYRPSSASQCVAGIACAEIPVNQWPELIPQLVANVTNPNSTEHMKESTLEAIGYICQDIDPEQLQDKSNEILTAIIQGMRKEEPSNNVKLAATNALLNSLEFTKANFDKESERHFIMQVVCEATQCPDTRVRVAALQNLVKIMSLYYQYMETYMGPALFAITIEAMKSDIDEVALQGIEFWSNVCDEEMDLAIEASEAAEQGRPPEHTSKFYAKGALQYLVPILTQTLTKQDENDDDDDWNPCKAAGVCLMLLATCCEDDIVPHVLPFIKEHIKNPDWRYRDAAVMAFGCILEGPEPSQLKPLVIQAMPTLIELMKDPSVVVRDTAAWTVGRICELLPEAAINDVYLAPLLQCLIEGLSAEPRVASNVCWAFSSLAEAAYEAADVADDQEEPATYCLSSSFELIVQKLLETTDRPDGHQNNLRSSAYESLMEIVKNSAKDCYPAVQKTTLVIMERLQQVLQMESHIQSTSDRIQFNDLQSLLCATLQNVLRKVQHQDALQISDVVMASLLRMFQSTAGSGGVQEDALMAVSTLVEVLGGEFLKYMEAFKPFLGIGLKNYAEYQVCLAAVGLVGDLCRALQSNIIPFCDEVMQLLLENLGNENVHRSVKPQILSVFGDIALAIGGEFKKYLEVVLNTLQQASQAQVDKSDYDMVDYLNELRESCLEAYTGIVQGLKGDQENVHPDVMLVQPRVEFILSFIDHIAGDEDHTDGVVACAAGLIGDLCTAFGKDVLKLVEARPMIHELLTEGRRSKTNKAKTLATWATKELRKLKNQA
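Inhibition scored from the CFP 486 nm/YFP 530 nm FRET ratio 45 min after adding 0.125 microM importin beta to 50 nM Rango biosensor preincubated 5 min with compound (room temperature, PBS with DTT, Tween-20, BSA). No-importin wells as positive control.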
* = called active by the depositor; ? = inconclusive; . = no result given. Not all compounds are listed. The share of hits here may be higher or lower than overall.

Rango dissoc inh | miR-21 FLuc | GLA inh pH 4.5 | Rango-impB inh | smiles
0% | -3% | -9 | -3.1% | Cc1cccc(/N=C/C2=C(O)CC(C)(C)CC2=O)n1
-9% | -18% | -7 | 0.0% | COc1cc2c(cc1OC)C1(CCCC1)CNC2c1cccc([N+](=O)[O-])c1 (stereo unspecified)
. | -10% | -9 | . | Cn1cc(C(=O)N2CCc3ccccc3C2)c(=O)c2cc(S(=O)(=O)N3CCCCC3)ccc21
22% | -1% | . | -0.3% | COc1ccc([N+](=O)[O-])cc1N(CC(O)CN1C(=O)NC(C)(C)C1=O)S(=O)(=O)c1ccccc1 (stereo unspecified)
2% | 0% | -3 | -1.7% | COC(=O)C(NC(=O)c1ccc(F)cc1)(Nc1nc(C)cs1)C(F)(F)F (stereo unspecified)
4% | -7% | -19 | -0.5% | CCC(=O)n1nc(-c2ccc(OC)cc2)nc1N
? | -15% | -7 | ? | COc1cc(-c2c(C#N)c(N)nc3c2CCCC3)cc(OC)c1OC
1% | -23% | -18 | -0.4% | CCOc1ccc(-c2nnn(CC(=O)Nc3cc(OC)ccc3OC)n2)cc1OCC
2% | 14% | 1 | 13% | Cc1cc(=O)n2c(n1)NC(Nc1cccc(C)c1C)=NC2c1ccc(F)cc1 (stereo unspecified)
15% | -8% | -17 | -6.0% | Cc1ccc2nc(SCc3cccc([N+](=O)[O-])c3)nc(C)c2c1
. | -1% | -18 | . | O=C(Nc1ccnc(-c2cccnc2)n1)c1ccc(F)cc1
-1% | -19% | -4 | 5.3% | Cc1ccc(OCCn2cc(C#N)c3ccccc32)cc1
6% | -9% | -12 | -2.7% | CC1(C)Cc2nc3[nH]c(=S)[nH]c(=O)c3cc2CO1
5% | -4% | -5 | 0.3% | CC1=C(C(N)=O)C(c2ccccn2)n2nc(SCc3ccccc3Cl)nc2N1 (stereo unspecified)
-9% | 2% | -3 | 0.8% | O=C(O)c1ccccc1-c1ccccc1C(=O)NNc1ccc([N+](=O)[O-])cc1
35% | -4% | . | -0.6% | CC(C)NC(=O)CN(C(=O)CCC(=O)Nc1nccs1)c1ccc(C(C)C)cc1
-13% | . | . | 1.5% | COc1cc(CNC(=O)c2cc3ccccc3oc2=O)cc(OC)c1OC
. | ? | ? | . | CN(C)CCCNS(=O)(=O)c1ccc(N2CCC(c3ccc(Cl)cc3)=N2)cc1
8% | . | . | ? | CN1C[C@H]2CON(C)[C@H]2C[C@H]1c1cccc(-c2ccc(C#N)cc2)c1
-3% | -5% | -5 | 0.4% | COc1ccc(F)cc1S(=O)(=O)Nc1cccc(C(=O)O)c1
13% | -21% | 6 | -3.6% | C=CCn1c(Sc2ccccc2)nc2c1c(=O)[nH]c(=O)n2C
-5% | -7% | . | -1.0% | O=S(=O)(NCc1ccc2c(c1)OCO2)c1ccc(F)c(F)c1
0% | . | . | -2.1% | COCCn1c(SCC(=O)NC2CCCC2)nc2ccccc2c1=O
1% | -18% | -3 | 0.3% | CCOc1ccc(Cl)cc1/C=N/NC(=O)c1ccccc1

Shown with two lines to a compound: 3 of the compounds above
Screens in order – Rango dissoc inh | miR-21 FLuc | GLA inh pH 4.5 | Rango-impB inh
- CC1=C(C(N)=O)C(c2ccccn2)n2nc(SCc3ccccc3Cl)nc2N1 (stereo unspecified)
    5% | -4% | -5 | 0.3%
- O=C(O)c1ccccc1-c1ccccc1C(=O)NNc1ccc([N+](=O)[O-])cc1
    -9% | 2% | -3 | 0.8%
- CC(C)NC(=O)CN(C(=O)CCC(=O)Nc1nccs1)c1ccc(C(C)C)cc1
    35% | -4% | . | -0.6%

Continuation:
Rango dissoc inh | miR-21 FLuc | GLA inh pH 4.5 | Rango-impB inh | smiles
-3% | -2% | -18 | 0.3% | COc1cc(C2c3c(oc4ccccc4c3=O)C(=O)N2c2nccs2)ccc1O (stereo unspecified)
7% | 0% | . | -2.8% | CCC(C)[C@H]1COCCS(=O)(=O)N1Cc1ccc(C)cc1 (stereo partly specified)
5% | 1% | 8 | -1.9% | O=C(Nc1ccc(-c2nc3cc(NC(=O)c4cccs4)ccc3o2)cc1)c1cccs1
3% | -12% | 12 | -0.3% | CC1=CC(C)(C)[N+](C)=CN1c1ccccc1
11% | 0% | . | 1.3% | N#CCOC(=O)[C@H](Cc1ccccc1)N1C(=O)c2ccccc2C1=O
13% | -3% | . | -0.7% | Cc1cc(OCC(=O)N2CCC(C(N)=O)CC2)c2c(C)c(C)c(=O)oc2c1
-3% | -45% | . | 4.6% | CNC(=O)c1cc(C(=O)c2ccc(Cl)cc2)c[nH]1
-19% | -1% | -5 | 2.8% | Cc1cc(C)c2cc(C#N)c(NCCOC(=O)c3ccccc3C)nc2c1
. | -2% | 11 | . | COC(=O)c1cc(COc2ccc3c4c(c(=O)oc3c2)CCC4)c(C)o1
-2% | -48% | 3 | ? | CCCc1cc(=O)n2c(nc3ccccc32)[nH]1
11% | -2% | 1 | -0.7% | COC(=O)c1ccccc1NC(=O)n1cc(C)cn1
-12% | -8% | -5 | ? | COc1ccc2ccccc2c1/C=N/NC(=S)Nc1cc(S(=O)(=O)N2CCOCC2)ccc1N1CCOCC1
5% | -4% | 5 | 0.0% | O=C(NCc1cccnc1)C(=O)NCC1OCCCN1S(=O)(=O)c1ccccc1 (stereo unspecified)
-6% | 1% | . | -4.5% | COc1cccc(CN2CCNC(=O)C2CC(=O)NCCN2CCCCC2=O)c1 (stereo unspecified)
? | -6% | -7 | 1.4% | CCc1cccc(C)c1NC(=S)NCC(c1cccnc1)N1CCOCC1 (stereo unspecified)
2% | -7% | -5 | 3.5% | COC(=O)c1ccc(C2/C(=C(/O)c3ccc(OC)cc3)C(=O)C(=O)N2CC2CCCO2)cc1 (stereo unspecified)
10% | 0% | . | 0.0% | Cc1nn(CC(=O)NCCCN2CCCCC2)c(=O)c2cccn12
-12% | -3% | -2 | -2.0% | O=C(O)Cc1cn(-c2ccccc2)nc1-c1ccccc1
41% | . | . | -1.2% | COc1ccc(NS(=O)(=O)c2ccc(O)c(C(=O)OCC(=O)N3CCCCC3)c2)cc1
-1% | -62% | -5 | 2.1% | C/C(=N\Nc1nc(-c2ccccc2)cs1)c1cccs1
2% | -6% | 0 | 11% | Cc1cc(C(=O)NCc2ccc(S(N)(=O)=O)cc2)cs1
? | 2% | 6 | ? | CC(=O)C1(C)OC(N)=C(C#N)C(c2ccccc2)C1(C#N)C#N (stereo unspecified)
? | 0% | . | ? | C#CCOc1ccc(C2C3=C(CC(C)(C)CC3=O)N(CC(=O)O)C3=C2C(=O)CC(C)(C)C3)cc1OC
-11% | 2% | . | -3.9% | O=C(O)CN=CC1=C(O)CC(c2ccccc2)CC1=O (stereo unspecified)
-2% | 1% | 7 | -0.6% | N#CCCN(C(=O)CN1C(=O)NC2(CCCC2)C1=O)c1ccccc1F
2% | -25% | . | 6.6% | Cc1ccc2nc(-c3ccc(O)c(O)c3)cn2c1
1% | -5% | . | 3.0% | O=C(CSc1nnc(NC(=O)C2CC2)s1)Nc1ccc(F)cc1F
-15% | 0% | 1 | 0.6% | COc1ccc(OCC(O)CN2CCN(c3ccc(Cl)cc3)CC2)cc1 (stereo unspecified)
-1% | -2% | . | -1.6% | CCOC(=O)NC(=O)c1cn(-c2ccc(OC)cc2)c(=O)[nH]c1=O
-1% | 11% | -5 | -5.3% | Cn1c(=O)c2c(ncn2Cc2cccc(Cl)c2)n(C)c1=O
0% | 0% | 6 | -4.6% | COc1ccc(/C=N/NC(=O)COc2cccc3ccccc23)c(C(=O)O)c1OC
-3% | -6% | 9 | 2.3% | CCOC(=O)N/N=C\c1ccc(OC(=O)c2ccco2)cc1
2% | 12% | 0 | 0.3% | CCN(Cc1cnn(C)c1)Cc1nc(C(c2ccccc2)c2ccccc2)no1
-9% | -14% | -6 | -0.3% | OCCC1CN(Cc2cccc3nccnc23)CCN1Cc1ccc(F)c(F)c1 (stereo unspecified)
10% | 8% | -2 | -0.4% | COc1ccc(C(=O)c2coc3ccc(O)c(CN4CCCCC4)c23)cc1
-10% | . | . | 1.5% | CCC(=O)NC(c1ccc(C)cc1)c1cc(Cl)c2cccnc2c1O (stereo unspecified)
-17% | 0% | . | 0.4% | CC(=O)Nc1ccc(S(=O)(=O)NC2(C(F)(F)F)NC(=O)N(Cc3ccccc3)C2=O)cc1 (stereo unspecified)
-7% | 1% | 6 | -0.2% | Cc1cc(C)nc(SCC(=O)N/N=C/c2cccn2-c2ccc(O)cc2)n1
-1% | . | . | 0.7% | c1ccc(NN=C2c3ccccc3-c3ccccc32)cc1
-11% | -1% | . | 1.6% | O=C1CNC(=S)N1C(CO)c1ccccc1 (stereo unspecified)
-11% | 0% | . | ? | COc1ccccc1CCC(=O)Nc1ccc2c(c1)CN(Cc1ccc(C)o1)CC2
10% | -9% | -2 | -3.4% | O=[N+]([O-])c1ccc2c(c1)nc1n2CCSC1
-10% | -11% | 1 | 0.9% | N#Cc1cc2c(nc1SCc1ccccc1)CCCC2
-12% | -13% | 4 | -1.7% | C=CCn1c(CCNC(=O)c2cccs2)n[nH]c1=S
-10% | -5% | -1 | -2.2% | COc1cccc(-c2nnc(SCC3CNC(=O)O3)n2-c2ccc(Cl)cc2)c1 (stereo unspecified)
-2% | -11% | 5 | -4.2% | C=CCOc1ccc(/C=N/NC(=O)C(=O)Nc2ccccn2)cc1OC
6% | -2% | 0 | 0.4% | COc1ccc(C2C(C#N)=C(/N=C/N3CCN(C)CC3)OC3=C2C(=O)CC(C)(C)C3)cc1OC (stereo unspecified)
-10% | -6% | 8 | -5.0% | CC1CCN(C(=O)CSc2nc3c(cnn3-c3ccc(Cl)cc3)c(=O)[nH]2)CC1

Part of the list above, showing only miR-21 FLuc.
SMILES | miR-21 FLuc
O=C1CNC(=S)N1C(CO)c1ccccc1 (stereo unspecified) | -1%
COc1ccccc1CCC(=O)Nc1ccc2c(c1)CN(Cc1ccc(C)o1)CC2 | 0%
O=[N+]([O-])c1ccc2c(c1)nc1n2CCSC1 | -9%

The listing continues:
Rango dissoc inh | miR-21 FLuc | GLA inh pH 4.5 | Rango-impB inh | smiles
11% | -3% | . | 4.1% | CC(C)CCNC(=O)c1cc(-c2cccs2)nc2ccccc12
14% | . | . | 1.5% | CCN1C(=O)[C@@H]2[C@@H](c3ccc(-c4ccccc4)cc3)N3CCCC[C@@]3(C(=O)OC)[C@@H]2C1=O
0% | -5% | -2 | 0.5% | CCOC(=O)N1CCN(C(=O)c2ccccc2NC(=O)c2ccc(C(C)(C)C)cc2)CC1
1% | -13% | 1 | -0.7% | Cc1ccc(S(=O)(=O)N=C2SCCCS2)cc1
0% | -7% | ? | -5.1% | COc1ccc(OC)c(NC(=O)CS(=O)(=O)Cc2nc(-c3ccccc3C)oc2C)c1
-9% | -6% | 3 | -0.6% | Cc1ccc(-c2c(C)n([O-])c3c([n+]2=O)CCCCC3)cc1
25% | -4% | 1 | 6.2% | CCCC(=O)Nc1nc(CC(=O)OCC)cs1
36% | -4% | . | 4.0% | CCc1cc(=O)oc2cc(C)cc(OCC(=O)NCC(O)c3ccccc3)c12 (stereo unspecified)
16% | -2% | . | 2.0% | COc1ccc(CCNC(=O)Cn2nc(C)n3nc(-c4ccccc4)cc3c2=O)cc1OC

Gathered by group, the entries above containing a CF3 group (2)
Rango dissoc inh | miR-21 FLuc | GLA inh pH 4.5 | Rango-impB inh | smiles
2% | 0% | -3 | -1.7% | COC(=O)C(NC(=O)c1ccc(F)cc1)(Nc1nc(C)cs1)C(F)(F)F (stereo unspecified)
-17% | 0% | . | 0.4% | CC(=O)Nc1ccc(S(=O)(=O)NC2(C(F)(F)F)NC(=O)N(Cc3ccccc3)C2=O)cc1 (stereo unspecified)
